High-throughput results deposited in PubChem BioAssay by Broad Institute.
Hedgehog – Drosophila hedgehog isoform A inhibitors, primary screen, biochemical, plate reader, single concentration (AID 588832). inhibition, % at 30.3 µM. 8,000 tested, under 10 active. Biochemical plate reader assay, Hedgehog inhibition; stronger effect = higher value; in the data active means inhibition from about 57%;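 further: 0% = neutral control wells and 100% = positive control wells; cholesterol-driven self-cleavage of fly hedgehog protein by fluorescence polarization; read one hour after cholesterol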
* marks the source's active call; other numbers are inactive results. Not all compounds are listed (hit frequency here may not be typical).

SMILES | Hedgehog
Cc1nnc(N2C(=O)c3oc4ccccc4c(=O)c3C2c2ccco2)s1 (centres undefined) | 11
O=C(C1CC1)N1CCN=C1SCc1ccc(F)cc1 | 4
Cc1ccc(C(=O)N2CC(C)CC(C)C2)cc1NC1=NC2CS(=O)(=O)CC2S1 (centres undefined) | -1
O=C(CCC(=O)N1CCOc2ccccc21)Nc1ccc(F)cc1F | 7
COc1ccc(OC)c(C2=NOC(C(=O)N3CCN(c4ccccc4)CC3)C2)c1 (centres undefined) | 1
COCCNC(=O)Cn1cc2c(n1)CCCCC2 | 20
Cc1cccc(C)c1NC(=O)C1CCCN1S(=O)(=O)c1ccc2c(c1)n(C)c(=O)c(=O)n2C (centres undefined) | 19
Cc1cccc(N2CCN(S(=O)(=O)c3ccc4c(c3)C(C)(C)C(=O)N4C)CC2)c1C | 2
CC1CN(Cc2nc3c(c(=O)n(C)c(=O)n3C)n2Cc2ccccc2)CC(C)O1 (centres undefined) | 7
O=C1CCc2ccccc2O1 | 5
CCOc1ccc(NC(=O)CS(=O)(=O)c2cn(CC)c3ccccc23)cc1 | -1
Cn1c(Cn2c(=O)sc3ccccc32)nnc1SCC(=O)Nc1ccc(Cl)cc1 | 7
Clc1ccc(C2CC(c3cccs3)n3ncnc3N2)c(Cl)c1 (centres undefined) | 8
Cc1cccc(NC(=O)CSc2nc3ccccc3nc2N2CC(C)OC(C)C2)c1 (centres undefined) | 4
COc1cccc(C2CC(c3cccc(Br)c3)n3ncnc3N2)c1 (centres undefined) | 17
CC(C)c1nnc(NC(=O)CC23CC4CC(CC(C4)C2)C3)s1 | 8
CCc1cc(=O)oc2c3c(cc(OCC(=O)NCc4ccncc4)c12)OC(C)(C)CC3 | 7
Cc1ccc2oc(=O)c3cc(C(=O)NCCCN4CCc5ccccc5C4)sc3c2c1 | 17
COc1ccc2c(c1)c(=O)oc1cc(OCC(=O)NCC3CCC(C(=O)O)CC3)ccc12 (centres undefined) | 4
COc1ccc(S(=O)(=O)N2CCN(c3ccc(C)cc3C)CC2)cc1OC | 15

Continued (2 carried over from the part before).
SMILES | Hedgehog
COc1ccc2c(c1)c(=O)oc1cc(OCC(=O)NCC3CCC(C(=O)O)CC3)ccc12 (centres undefined) | 4
COc1ccc(S(=O)(=O)N2CCN(c3ccc(C)cc3C)CC2)cc1OC | 15
COc1ccc(NC(=O)C2CCCN2c2nn3c(=O)cc(C)nc3s2)cc1 (centres undefined) | 5
O=C(CCC(=O)N1CCOc2ccccc21)NCCCN1CCN(Cc2ccccc2)CC1 | -3
Cc1cc(C)c2nc(NNC(=O)c3ccc(S(=O)(=O)N4CC(C)CC(C)C4)cc3)sc2c1 (centres undefined) | 5
COc1ccc2[nH]c3c(c2c1)CCN1C(=O)N([C@@H](C)C(=O)NCc2c(F)cccc2Cl)C(=O)[C@]31C | -2
Cc1ccc(CSc2nc3ccncc3[nH]2)cc1 | 5
Cc1nc2ccccc2c2oc(C(=O)NCCN3CCN(C)CC3)cc12 | 23
CCOC(=O)N1CCN(C(=O)CS(=O)(=O)Cc2nc(-c3ccccc3C)oc2C)CC1 | 2
Nc1ccc(O)c([N+](=O)[O-])c1 | 7
CCOC(=O)Cn1c(S(=O)(=O)Cc2ccccc2)nc2ccccc21 | 2
CCC(C)[C@H](NC(=O)[C@H](Cc1ccccc1)n1c(=O)[nH]c2ccccc2c1=O)C(=O)N1CCC(C(=O)O)CC1 (some centres undefined) | 4
COCCOC(=O)C1=C(N)Oc2c(oc(CO)cc2=O)C1c1c(F)cccc1Cl (centres undefined) | 9
COc1ccccc1C(=O)N(Cc1nc(-c2ccc(Cl)cc2)no1)C(C)C | 12
CCOc1ccc(NS(=O)(=O)c2cc3c(cc2C)N(C)CCO3)cc1 | 3
CCOC(=O)N1CCN(c2cc(C)nc3nc(C)nn23)CC1 | 29
O=C(c1cc2ccccn2n1)N1CCN(Cc2ccccc2)CC1 | 14
CCOc1ccc(CCN2C(=O)C3C4C=CC(C4)C3C2=O)cc1OCC (centres undefined) | 25
CN(C(=O)COc1cc(=O)n(C)c2ccccc12)c1ccc(Br)cc1 | 17
CC(=O)N1CCc2cc(C(=O)CN3CCN(c4cccc(Cl)c4)CC3)ccc21 | 5
Cc1c(C(=O)OCCOC(C)C)[nH]c2c1C(=O)CC(c1ccco1)C2 (centres undefined) | 12
O=C(CSc1nnc(-c2ccccc2)o1)Nc1ccccc1F | 12
CN1C(=O)c2ccccc2NC(=O)[C@]12O[C@@H]2c1cccc(O)c1 | 2
O=c1cc(-c2ccc(O)c(O)c2)oc2cc(O)c(C3OC(CO)C(O)C(O)C3O)c(O)c12 (centres undefined) | 3
CCC(=O)Nc1sc2c(c1C(N)=O)CCN(Cc1ccccc1)C2 | 19
O=C(NCCCN1CCOCC1)c1ccccc1N1C(=O)[C@@H]2Cc3c([nH]c4ccccc34)C(c3ccccc3)N2C1=O (some centres undefined) | 5
CCCCC(CC)COC(=O)CCCCC(=O)OCC(CC)CCCC (centres undefined) | 0
O=C(Nc1ccccc1)N1CCC(n2c(=O)[nH]c3ccccc32)CC1 | 12
Cc1oc(-c2cccc(Cl)c2)nc1CN1CCC(C(=O)N2CCN(c3ccccc3F)CC2)CC1 | 14
CCC(Cc1ccccc1)NS(=O)(=O)c1c(C)nc2sccn2c1=O (centres undefined) | 5
O=C(CCC(=O)N1CCSc2ccccc21)NCCc1ccccc1 | 5
COc1cccc(NC(=O)[C@@H]2CCC(=O)N2C2OC(=O)c3ccccc32)c1 (some centres undefined) | 4
Cn1cccc1Cc1nnc(SCC(=O)Nc2ccccc2F)n1CCc1ccccc1 | 11
O=C1c2ccccc2C(Nc2ccc(Cl)cn2)N1Cc1ccccc1 (centres undefined) | 0
Cn1c(=O)[nH]c(=O)c2c1nc(CN1CCN(c3ccccc3F)CC1)n2CCc1ccccc1 | 19
CCC(Sc1ccc(Cl)cc1)C(=O)Nc1nnc(-c2cccc([N+](=O)[O-])c2)s1 (centres undefined) | 8
Fc1ccc(Cc2nnc(-c3cccs3)o2)cc1 | 5
Cc1oc(-c2ccccc2Cl)nc1CS(=O)(=O)CC(=O)NCCc1ccccc1 | 5
CCC(O)C(C)(C)C (centres undefined) | 2
Cc1cc(Nc2ccc(F)cc2)n2nc(C)nc2n1 | 15
CCc1nnc(NC(=O)c2ccc(S(=O)(=O)N3CCOCC3)cc2)s1 | 2
Cc1[nH]c(C)c2c(=O)n(-c3ccccc3)ncc12 | 5
Cc1cc(=O)oc2c3c(cc(OCC(=O)NCc4ccco4)c12)OC(C)(C)CC3 | 5
C=C(C)Cn1c(SCC(=O)O)nc2c1c(=O)[nH]c(=O)n2C | 0
CC(C)Oc1ccc(CNC(=O)CCC(=O)N2CC(C)Sc3ccccc32)cc1 (centres undefined) | 20
Cc1cc(C)n2nc(S(=O)(=O)NCCc3ccccc3)nc2n1 | 12
CC1(C)CC(=O)C2=C(C1)N1C(=C(C#N)C2c2ccc(Cl)cc2)N=C(N)c2ccccc21 (centres undefined) | 29
CC(=O)OC1c2ccccc2C(=O)N1Cc1ccccc1 (centres undefined) | 13
COc1ccccc1CCNC(=O)C(=O)NCC1OCCN1S(=O)(=O)c1ccc(C)cc1 (centres undefined) | 2
CC1CN(c2nc3ccccc3nc2SCC(=O)Nc2cccc(C(F)(F)F)c2)CC(C)O1 (centres undefined) | 2
COc1ccc(N(CC(=O)NCc2ccc3c(c2)OCO3)S(=O)(=O)c2c(C)nn(C)c2C)cc1 | 7
Cc1cccnc1 | 5
CCOC(=O)CN1CC23C=CC(O2)C(C(=O)Nc2ccc(OC)cc2OC)C3C1=O (centres undefined) | 21
COc1ccc(-c2noc(N3CCC(C(=O)Nc4ccc(F)cc4F)CC3)n2)cc1 | 4
O=C(c1oc(=O)c2ccccc2c1-c1ccccc1)N1CCC(O)CC1 | -17
Cc1cccc(N2CCN(C(=O)C3CCN(c4nnc(-n5cccc5)s4)CC3)CC2C)c1 (centres undefined) | 15
c1cn2c(NC3CCCC3)c(-c3ccc(N4CCOCC4)cc3)nc2cn1 | 10
Cc1cc(C)c(N)cc1C | 9
CCCCCCCCOc1ccc(C(=O)O)cc1 | 0
CC1CCc2nn(CC(=O)NCCC3=CCCCC3)cc2C1 (centres undefined) | -3
COc1cc([C@H](Cc2ccccc2)NC(C)=O)oc(=O)c1 | 5
COc1ccc(-n2c(Cc3cccn3C)nnc2SCC(=O)Nc2cccc(OC)c2)cc1 | 21

(cont.)
SMILES | Hedgehog
CCc1cc(=O)oc2c3c(cc(OCC(=O)NCc4cccnc4)c12)OC(C)(C)CC3 | 5
Cc1ccc(NC(=O)CSc2nnc(Cc3cccn3C)n2-c2ccc(F)cc2)cc1 | 17
COc1ccc(S(=O)(=O)N2CCN(c3cccc(C)c3C)CC2)cc1 | 15
CC1(C)CC(=O)C2=C(C1)Nc1cc3c(cc1C2c1ccc2c(c1)OCO2)OCO3 (centres undefined) | 32
Cc1cc(Nc2ccc(F)cc2Cl)n2ncnc2n1 | 20
COc1cc(-c2cc(=O)c3c(O)c(OC)c(OC)c(O)c3o2)ccc1O | 10
CCCCc1cc(=O)oc2c(C)c(OCC(=O)N3CCC(C(N)=O)CC3)ccc12 | 7
CSc1nnc(Cn2c(=O)sc3ccccc32)n1-c1ccccc1C | 15
O=C(CN1CCN(C2CCCCC2)CC1)c1ccc2cc[nH]c2c1 | 5
CCOC(=O)c1ccc(NC(=O)Cn2cc3c(n2)CCC(C)C3)cc1 (centres undefined) | 17
O=C(NCCCN1CCOCC1)c1ccc(CS(=O)(=O)c2c(Cl)cccc2Cl)o1 | 9
O=C(NCCn1cc(SCc2ccccc2)c2ccccc21)c1ccccc1F | 8
Cc1cc(OCC(=O)NC(Cc2c[nH]c3ccc(O)cc23)C(=O)O)c2c(C)c(C)c(=O)oc2c1 (centres undefined) | 9
O=C(O)Cn1ncc2c1-c1ccoc1CC2 | 5
O=C1NCCC12C(=O)Nc1ccccc12 (centres undefined) | 7
CCOC(=O)N1CCC(NC(=O)Cn2ncc3c2-c2cc(C)ccc2OC3)CC1 | 4
Cc1c(OC(C)C(=O)NCC2CCC(C(=O)O)CC2)ccc2c(-c3ccccc3)cc(=O)oc12 (centres undefined) | 8
COc1ccc(C(=O)NCC(c2cccnc2)N2CCN(c3ccccc3)CC2)cc1OC (centres undefined) | 2
Cc1nn(C(=O)c2ccoc2C)c(N)c1-c1ccccc1 | -4
COc1ccc(N(C)C(=O)c2ccc3snnc3c2)cc1 | 24

Fetched by structure from the list above (4):
SMILES | Hedgehog
CCOC(=O)c1ccc(NC(=O)Cn2cc3c(n2)CCC(C)C3)cc1 (centres undefined) | 17
COc1ccc(C(=O)NCC(c2cccnc2)N2CCN(c3ccccc3)CC2)cc1OC (centres undefined) | 2
COc1ccc(S(=O)(=O)N2CCN(c3cccc(C)c3C)CC2)cc1 | 15
CCCCc1cc(=O)oc2c(C)c(OCC(=O)N3CCC(C(N)=O)CC3)ccc12 | 7

Laid out differently: results already given.
mol,Hedgehog
CSc1nnc(Cn2c(=O)sc3ccccc32)n1-c1ccccc1C,15
O=C(CN1CCN(C2CCCCC2)CC1)c1ccc2cc[nH]c2c1,5

Five consecutive compounds out of the list so far:
SMILES | Hedgehog
CCc1cc(=O)oc2c3c(cc(OCC(=O)NCc4cccnc4)c12)OC(C)(C)CC3 | 5
Cc1ccc(NC(=O)CSc2nnc(Cc3cccn3C)n2-c2ccc(F)cc2)cc1 | 17
COc1ccc(S(=O)(=O)N2CCN(c3cccc(C)c3C)CC2)cc1 | 15
CC1(C)CC(=O)C2=C(C1)Nc1cc3c(cc1C2c1ccc2c(c1)OCO2)OCO3 (centres undefined) | 32
Cc1cc(Nc2ccc(F)cc2Cl)n2ncnc2n1 | 20

(more compounds)
SMILES | Hedgehog
Cc1ccc(-c2[nH]c3ccccc3c2SCCNC(=O)c2cc3ccccc3oc2=O)cc1 | 19
Cc1cc2c(cc1S(=O)(=O)Nc1ccc(F)cc1)n(C)c(=O)c(=O)n2C | -2
COc1cc(C(=O)NNc2nc3cc4c(cc3s2)OCO4)cc(OC)c1OC | 3
CCn1cc(SCC(=O)N2CCc3ccccc32)c2ccccc21 | 2
Cc1c(C)c2ccc(OCC(=O)NC(Cc3ccc(Cl)cc3)C(=O)O)cc2oc1=O (centres undefined) | 4
COc1ccc(N2CCN(C(=O)C(Cc3ccccc3)n3cccc3)CC2)cc1 (centres undefined) | 10
Cc1ccc(NC(=O)C2=CC(c3ccc(C)cc3)=NS(=O)(=O)N2C)cc1 | 2
COc1ccc(C2CC(c3cccs3)n3nc(N)nc3N2)cc1 (centres undefined) | 7
Cc1noc(/C=C/NCc2cccnc2)c1S(=O)(=O)N(C)CC(=O)N1CCc2ccccc21 | 4
O=c1[nH]c(=S)ccn1C1OC(CO)C(O)C1O (centres undefined) | 9
CCCCn1c(CN2CCN(c3ccc(F)cc3)CC2)nc2c1c(=O)n(C)c(=O)n2C | -2
COc1ccc(-n2nnc3c(=O)n(CC(=O)N4CCC(Cc5ccccc5)CC4)cnc32)cc1 | 5
CCOC(=O)C(C)(C)Sc1nc2c(cnn2-c2ccc(Cl)cc2)c(=O)[nH]1 | 5
COc1ccc(NC(=O)c2cccc(NC3=NC4CS(=O)(=O)CC4S3)c2)cc1Cl (centres undefined) | 7
CCOC(=O)c1c(C)oc2cc(Br)c(O)c(Br)c12 | 29
Cc1cc(C(=O)N2CCN(c3cc(Cl)ccc3C)CC2)on1 | 9
Cc1c2cnn(CC(=O)N3CCOCC3)c(=O)c2c(C)n1Cc1ccccc1F | 4
CCOc1ccc(-n2nnc3c(=O)n(CC(=O)N4CCCc5ccccc54)cnc32)cc1 | 2
COc1ccc(S(=O)(=O)CCC(=O)NCc2ccc(C)o2)cc1 | 8
C=C1CCC2C(C)(C(=O)O)CCCC2(C)C1CCC(CO)CCO (centres undefined) | 3
Cc1ccc(C)c(CN2CCCN(C(=O)Cn3ncc4c3-c3ccccc3OC4)C2)c1 | 9
COc1ccc(CNC(=O)[C@@H](NC(=O)C2CCN(C(=O)[C@@H](N)CC(C)C)CC2)C(C)C)cc1 | 9
